From PubChem
H5N1 antiviral – MDCK cell protection from H5N1 avian flu; cytopathic effect, luminescence, 72 h; stronger effect = higher value; no value below 0 was filed and about half of the inactive calls have no number; reference of the scale not given here; inhibition, % at 50 µM; 96,000 tested, 0.07% active; in the data active = inhibition above about 25%
The depositor's hits bear a star; i = inactive.

SMILES | H5N1 antiviral
Cn1c(=O)[nH]c(=O)c2c1nc(N1CCCCCC1)n2CCCSc1nc2ccccc2o1 | 5.2
COCCCN=C(c1ccco1)n1c(=S)nc(-c2ccco2)n(CCCOC)c1=S | 0.1
CC/C(=N\NC(=O)c1csc(C)c1C)c1cccs1 | i
Cc1nnc(SCC(=O)Nc2nc(C(C)(C)C)cs2)s1 | 1.7
CC(C)Cc1nc2n[nH]c(N)c2c2c1CCCC2 | i
Cc1nc2ccc(S(=O)(=O)NCC(=O)N3CCC(N4CCCCC4)CC3)cc2s1 | 2.0
C(=N\n1cnnc1)/C1CCCCC1 | 0.6
O=C1NC(=S)N/C1=C/c1cc([N+](=O)[O-])ccc1O | i
CCn1c(O)c(N=NC2=NC(=O)CS2)c2cc(C)ccc21 | i
CC(=O)Nc1cccc(/C(C)=N/NC(=O)c2ccccc2Cl)c1 | 2.4
Cn1c(=O)c2c(nc(CN3CCN(c4ccccc4)CC3)n2Cc2c(F)cccc2Cl)n(C)c1=O | 4.3
O=C(OCCN1CCCCC1)c1cc2ccccc2o1 | i
COc1cccc(C(=O)N2CCN(C3CCC(c4ccccc4)CC3)CC2)c1OC (stereo unspecified) | 0.6
COc1ccccc1N(CC(N)=O)S(=O)(=O)c1ccc(C)cc1 | 0.8
Cc1noc(C)c1C(=O)NCc1ccccc1 | 0.8
COc1cc(CNCCSc2nnnn2C)cc(Br)c1OCc1ccccc1F | 0.4
Cc1cc(N2CCC(C)CC2)nc2ccc(N3C(=O)CCC3=O)cc12 | i
O=C(NCc1ccco1)c1nnc(Cc2ccc(Cl)cc2)o1 | 0.8
CN(C=O)CP(=O)(O)CN(C)C=O | i
CCCCNC(=O)c1c(N)n(Cc2ccc3c(c2)OCO3)c2nc3ccccc3nc12 | 0.4
CC(C)(C)OC(=O)c1c(N)n(Cc2ccco2)c2nc3ccccc3nc12 | i
CCOC(=O)N1CCN(c2c(NCCN(C)Cc3ccccc3)c(=O)c2=O)CC1 | 0.4
O=C(Cc1c(F)cccc1Cl)c1ccc(O)cc1O | 0.3
CCOCCCN(Cc1cc2cc(C)cc(C)c2[nH]c1=O)C(=O)N(CC)CC | i
O=c1c2c(nc3cc(-c4cccc(Cl)c4)[nH]n13)CCC2 | 0.4
CCn1c(SCC(=O)Nc2cc(C)on2)nnc1-c1ccco1 | i
Cc1cc(C)c2c(c1)cc(C)c1nnc(SCC(=O)Nc3cc(C)on3)n12 | 0.3
CCOP(=S)(OCC)SCC(=O)NC(C(=O)O)C(C)C (stereo unspecified) | i
CCOC(=O)N1CCC(NC(=O)Cn2cc3c(n2)CCCCC3)CC1 | 0.6
COCC(=O)NCCc1ccc(S(N)(=O)=O)cc1 | 0.6
CC(=O)N1CCN(c2nc(CC(C)C)c3c(c2C#N)CCC3)CC1 | 0.8
COc1ccc(S(=O)(=O)N2CCN(C(=O)c3c(C)nn(-c4ccccc4)c3Cl)CC2)cc1 | i
CC(C)c1ccc(N2C(=O)CSC23C(=O)N2CCCc4cccc3c42)cc1 (stereo unspecified) | 0.3
Cc1ccc(S(=O)(=O)Oc2ccccc2N2C(=O)C3CC=CCC3C2=O)cc1 (stereo unspecified) | i
COc1ccc(Cn2nnnc2C(c2ccccc2Cl)N2CCN(C3CCCC3)CC2)cc1 (stereo unspecified) | i
O=C(Nc1ccc(N2CCN(C(=O)c3ccco3)CC2)cc1)c1cccs1 | i
COc1ccc(CC(=O)N2CC3(C)CC2CC(C)(C)C3)cc1 (stereo unspecified) | i
Cc1cc(OCC(=O)Nc2ccncc2)c(C)cc1Br | i
CCCCN(CC)S(=O)(=O)N1CCC(C(=O)NCCCN2CCOCC2)CC1 | 1.2
CCCOc1ccc(/C(O)=C2/C(=O)C(=O)N(c3cc(C)on3)C2c2ccc(C(=O)OC)cc2)cc1 (stereo unspecified) | 0.7
CCCc1cc(=O)oc2c(CN3CCCC3)c(O)ccc12 | i
CCOC(=O)C1=C(CC)Nc2ccccc2N=C1NC(=O)Nc1ccc(Cl)c(Cl)c1 | 4.8
Cc1cc(Cl)ccc1OCC(=O)Nc1ccccc1CO | i
CCOc1ccc(S(=O)(=O)NN)cc1 | 1.2
COCCNC(=O)c1cc(-c2ccc(OC)c(OC)c2)on1 | 0.8
N#C/C=C1/NC(=O)c2ccccc2S1 | 0.3
CCOC(=O)N1CCN(C(=O)CSc2nc3ccccc3c(=O)n2-c2ccccc2)CC1 | i
O=C1c2ccccc2C(=O)c2c(NCc3cccnc3)cccc21 | i
Cc1ccc(-c2nc(-c3ccccc3)no2)cc1 | i
Cc1ccc(CSCCNC(=O)CSCc2ccc([N+](=O)[O-])cc2)cc1 | i
(continued)
SMILES | H5N1 antiviral
CCOC(=O)c1nnc(-c2cccs2)nc1NC(C)C | 1.3
CCOC(=O)CNC(=O)CSc1ncnc2c1cnn2-c1ccc(C)cc1 | 0.4
COc1cc(C(=O)N2CCN(c3ccc([N+](=O)[O-])cc3)CC2)ccc1OCc1c(C)noc1C | i
Cc1cc(C(=O)N/N=C/c2ccccc2Br)no1 | i
COc1ccc(Cl)cc1C(=O)NNC(=O)c1cccnc1 | 0.9
Cc1cccc(OCC(=O)Nc2cc(C)c(C)cc2O)c1 | 1.5
CC(C)c1ccc(C(=O)CSc2n[nH]c(-c3ccncc3)n2)cc1 | 0.2
CC(C)(C)n1nc2c(c1NC(=O)COc1ccc(Cl)cc1)CSC2 | i
CSc1sc2ccccc2[n+]1CCCS(=O)(=O)[O-] | i
Cn1c2ccccc2c2c(C(=O)NCCCN3CCCC3=O)cn(C3CCCCC3)c(=O)c21 | 1.3
Cc1ccc(C(=O)CSc2nc(C)cc(C)c2C(N)=O)cc1 | 0.5
COc1ccc(Nc2nc(N)nc(CSc3nncn3C)n2)cc1 | 0.7
Cc1ccc2[nH]cc(C(=O)CN3CCN(C)CC3)c2c1 | i
O=C(CCn1nc(-c2ccc(Cl)cc2)ccc1=O)N1CCOCC1 | 1.6
Cn1c(CCCCCN)nc2ccccc21 | 0.8
COc1cc(Nc2ccccc2Cl)c([N+](=O)[O-])nc1[N+](=O)[O-] | 1.4
CC(C)(C)n1ncc2c(=O)n(CC(=O)c3ccc(Cl)cc3)cnc21 | 0.6
CCOC(=O)c1ccc(S(=O)(=O)N2CCN(CC3CC=CCC3)CC2)cc1 (stereo unspecified) | 2.5
O=C(CSc1ncc(-c2ccccc2)[nH]1)Nc1cccc(O)c1 | i
CCOC(=O)c1cc(NC(=O)Nc2ccc(OC)c(OC)c2)c(C)nc1C | 2.5
O=C(CN1C(=O)C2CC=CCC2C1=O)Nc1nnc(SCc2c(Cl)cccc2Cl)s1 (stereo unspecified) | i
CCc1nc(-c2cc3ccc(C)cc3[nH]c2=O)no1 | i
CC(=O)N1CCc2cc(S(=O)(=O)NC(CC(C)C)C(=O)Nc3ccc4c(c3)OCCO4)ccc21 (stereo unspecified) | i
O=C(CCOc1ccccc1)NCc1ccccc1 | i
CCc1nnc(NC(=O)c2ccc(S(=O)(=O)N3CCCc4ccccc43)cc2)o1 | 1.8
OCn1ncn(-c2ccccc2)c1=S | 0.1
Cc1cccc(C)c1NC(=O)C/C(N)=N/O | i
CCCS(=O)(=O)Nc1c(C(=O)O)[nH]c2ccccc12 | i
Fc1ccc(CSc2ncnc3sc4c(c23)CCCC4)cc1 | 0.2
COc1ccc(/C(O)=C2/C(=O)C(=O)N(Cc3cccnc3)C2c2ccco2)cc1OC (stereo unspecified) | i

2 consecutive records already listed, quoted:
SMILES | H5N1 antiviral
Fc1ccc(CSc2ncnc3sc4c(c23)CCCC4)cc1 | 0.2
COc1ccc(/C(O)=C2/C(=O)C(=O)N(Cc3cccnc3)C2c2ccco2)cc1OC (stereo unspecified) | i

Structures shown so far containing a COOH group (2):
SMILES | H5N1 antiviral
CCOP(=S)(OCC)SCC(=O)NC(C(=O)O)C(C)C (stereo unspecified) | i
CCCS(=O)(=O)Nc1c(C(=O)O)[nH]c2ccccc12 | i

Remaining list, next part:
SMILES | H5N1 antiviral
CCOC(=O)c1c(N)sc2c1CCC(C)C2 (stereo unspecified) | 0.0
O=S(=O)(Cc1ccccc1)NCc1cccnc1 | i
O=C(CS(=O)(=O)Cc1ccccc1)Nc1nc2ccccc2s1 | i
COc1ccc(S(=O)(=O)N2CCCC(C(=O)NCc3ccncc3)C2)cc1 (stereo unspecified) | 0.8
Cc1cc(C(=O)COC(=O)c2ccccc2O)c(C)n1Cc1cccs1 | i
COc1ccc2c(c1)c(=O)cc(C)n2CC(=O)NCc1ccco1 | 0.3
O=C(NCCc1cccs1)C1CC(c2cccc([N+](=O)[O-])c2)=NO1 (stereo unspecified) | 2.0
CC(C)Cc1ccc(C#N)c(SCC(N)=O)n1 | 0.9
COc1ccc(CCNC(=O)c2cnccn2)cc1 | 0.4
O=C(O)CP(=O)(c1ccccc1)c1ccccc1 | i
COc1ccc(C(=O)Nc2ccc3c4c(cccc24)CC3)cc1 | i
Cc1ccsc1C1C2=C(CCCC2=O)Nc2ncnn21 (stereo unspecified) | 2.1
CC1Cc2ccccc2N1C(=O)COC(=O)C1=COCCO1 (stereo unspecified) | 0.3
CC(C)(C)n1nc2c(c1NC(=O)COc1ccc3ccccc3c1)CS(=O)C2 (stereo unspecified) | i
CCC(=O)N(CCC(c1ccccc1)c1ccco1)Cc1cccs1 (stereo unspecified) | 0.5
CCOC(=O)c1nn(-c2ccccc2)c(=O)cc1SC(C)CC (stereo unspecified) | i
Cc1oc(C)c(C(=O)NCCCC(=O)O)c1C(=O)NCCCC(=O)O | 0.2
COc1ccc(CC(=O)OCc2cc3cccc(C)c3[nH]c2=O)cc1 | 0.8
Cc1ccc(-n2nnnc2SCCNS(=O)(=O)c2ccccc2)cc1C | i
COCCNC(=O)CCCCCn1c(=S)[nH]c2ccccc2c1=O | i

6 compounds from above, ordered by length of the SMILES, falling:
SMILES | H5N1 antiviral
Cn1c(=O)c2c(nc(CN3CCN(c4ccccc4)CC3)n2Cc2c(F)cccc2Cl)n(C)c1=O | 4.3
O=C(NCCc1cccs1)C1CC(c2cccc([N+](=O)[O-])c2)=NO1 (stereo unspecified) | 2.0
CCOC(=O)c1cc(NC(=O)Nc2ccc(OC)c(OC)c2)c(C)nc1C | 2.5
COc1ccccc1N(CC(N)=O)S(=O)(=O)c1ccc(C)cc1 | 0.8
Cc1ccc2[nH]cc(C(=O)CN3CCN(C)CC3)c2c1 | i
CC1Cc2ccccc2N1C(=O)COC(=O)C1=COCCO1 (stereo unspecified) | 0.3

Further entries follow.
SMILES | H5N1 antiviral
c1ccc(-n2nnnc2Oc2cccc3cccnc23)cc1 | i
O=C(c1ccccc1)c1cn(CC(=O)N2CCOCC2)c2ccccc12 | i
CC(=O)NC(C)C(=O)OCC(=O)Nc1ccc(Br)cc1 (stereo unspecified) | i
Cc1ccc(N(C(=O)Nc2ccccc2)C2=NCC(C)S2)cc1 (stereo unspecified) | i
CC(=O)NCCC(=O)NCc1ccc(F)cc1 | i
CC(=O)N1C(c2ccccc2)CC(=O)OC1c1ccc2c(c1)OCO2 (stereo unspecified) | i
CCC(C)(C)NC(=O)CN(CC1CCCO1)C(=O)CCC(=O)Nc1nccs1 (stereo unspecified) | i
Cc1cccc(NC(=O)CC2SC(=NC3CCCCC3)NC2=O)c1 (stereo unspecified) | i
COc1ccc(-c2[nH]c(-c3ccc(C)cc3)nc2SCC(=O)NCc2ccco2)cc1OC | i
Cc1ccc(-c2noc(C3CCCCC3)n2)cc1 | i

Of the compounds above, these contain fluorine:
SMILES | H5N1 antiviral
Cn1c(=O)c2c(nc(CN3CCN(c4ccccc4)CC3)n2Cc2c(F)cccc2Cl)n(C)c1=O | 4.3
COc1cc(CNCCSc2nnnn2C)cc(Br)c1OCc1ccccc1F | 0.4
O=C(Cc1c(F)cccc1Cl)c1ccc(O)cc1O | 0.3
Fc1ccc(CSc2ncnc3sc4c(c23)CCCC4)cc1 | 0.2
CC(=O)NCCC(=O)NCc1ccc(F)cc1 | i

(list continues)
SMILES | H5N1 antiviral
CC(=O)Nc1ccc(NC(=O)Cn2c(CC(=O)N3CCCC3)nc3ccccc32)cc1 | i
CC(C)c1ccc(NC2(C#N)C(=O)Nc3ccccc32)cc1 (stereo unspecified) | 0.0
CCO/C(C)=C1\C(=O)N(CC)c2ccccc21 | 0.9
CC(=O)C1C(c2ccco2)c2c(noc2C)CC1(C)O (stereo unspecified) | i
CC(NCC1(N2CCOCC2)CCCCC1)C(=O)N1CCc2ccccc21 (stereo unspecified) | 0.6
CN(C)CCCOc1ccc(Cl)cc1Br | i
CCN(CC)CCN1C(=O)c2oc3ccccc3c(=O)c2C1c1ccc(C)cc1 (stereo unspecified) | i
Cc1nn(Cc2ccc(Cl)c(Cl)c2)c(C)c1NC(=O)c1cc(CC(C)C)on1 | i
O=C(Nc1nnc(CCc2ccccc2)s1)C1CCCO1 (stereo unspecified) | 0.1
COc1ccc2c(c1OC)C(=O)OC2Nc1ncccc1C (stereo unspecified) | i
Cn1nnc(NCc2cc(Br)ccc2OCc2cccs2)n1 | 2.4
CC(=O)N1CCc2cc(S(=O)(=O)CCC(=O)O)ccc21 | 0.7
CC(NC(=O)CCC1COc2ccccc2O1)c1ccccc1 (stereo unspecified) | 0.0
O=c1c(O)c(-c2cccs2)oc2ccccc12 | 6.4
C=CCOC(=O)C1=C(C)NC(C)=C(C(=O)OCC=C)C1/C=C/c1ccccc1 | 0.9
CCOc1ccccc1N(CC(=O)NC1CCCC1)C(=O)CCCC(=O)Nc1ccccn1 | 0.8
CCOC(=O)C1CCN(C(=O)c2cc(OCC)c(OCC)c(OCC)c2)CC1 | 1.1
Cn1nc(C(F)(F)F)c(C#N)c1N1CCN(c2ccc(F)cc2)CC1 | 0.7
COC(=O)C(CCSC)NC(=O)CNS(=O)(=O)c1ccc(Br)cc1 (stereo unspecified) | i
COc1ccc(N2CCN(Cc3cc(=O)oc4cc(-c5ccccc5)c(O)cc34)CC2)cc1 | i
COc1ccc(N2CCN(C(=O)c3ccc(S(=O)(=O)N4CCOCC4)cc3)CC2)cc1 | i
CCc1ccc(N2C(=O)Cc3c2nc(N)c(C#N)c3N)cc1 | i
O=C(Nn1cnc2ccccc2c1=O)c1ccc(F)cc1Cl | 0.9
O=C(Nc1ccc2c(c1)OCO2)N1CCOCC1 | i
CCOc1ccc2c(c1)cc(CN(C(=O)CC)C1CCCCC1)c1nnnn12 | 1.7

An excerpt (hit frequency here may not be typical).
